Screening results from PubChem BioAssay.
Cruzain inh noDet – inhibitors of Trypanosoma cruzi cruzain without detergent; AID 1476; purified cruzain, Z-FR-AMC fluorescence, no detergent; 2.3% of 200,000 active; Potency, µM, for the others: max response, negative = inhibition, most hits filed as inhibitors;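 also: plate controls were enzyme without inhibitor for no effect and buffer without enzyme for full effect; nearly all actives have a fitted effect of over 40% in size; top concentration of the series not given in the record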
Target sequence (P25779 123-467 limits assumed): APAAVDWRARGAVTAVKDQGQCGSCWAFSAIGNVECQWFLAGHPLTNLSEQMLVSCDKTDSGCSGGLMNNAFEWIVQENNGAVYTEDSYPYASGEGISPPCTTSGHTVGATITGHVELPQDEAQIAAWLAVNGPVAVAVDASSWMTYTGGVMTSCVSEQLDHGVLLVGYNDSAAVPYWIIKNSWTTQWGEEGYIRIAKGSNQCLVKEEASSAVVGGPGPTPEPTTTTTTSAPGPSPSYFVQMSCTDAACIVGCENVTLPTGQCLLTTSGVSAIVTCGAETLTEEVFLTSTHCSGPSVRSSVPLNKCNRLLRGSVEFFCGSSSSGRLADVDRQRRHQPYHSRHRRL
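Purified cruzain at 1.5 nM, pre-incubated 15 min with compound at room temperature in 100 mM sodium acetate pH 5.5, 5 mM DTT, 0.00005% Triton X-100. Reaction started with 2 uM Z-FR-AMC; AMC fluorescence increase over 60 s gives rate.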
LASV entry inh – blocks Lassa virus binding to or entry into cells | 1.2% of 300,000 active | Lassa virus pseudotype entry inhibition, cell reporter; control for the full effect not named in the record | Potency, µM (top dose mostly 37.9 µM), without a hit: at the highest dose activity change, negative = inhibition, most hits filed as inhibitors; active means well fitted inhibition curve with a large enough effect; inconclusive means small, poorly fitted or top-dose-only effect, or effect the other way; inactive means flat fitted curve, though single readings scatter; tested in HEK293 cells; also: % is scaled to controls: 0 for no effect and ±100 for the full control effect; nearly all actives have a fitted effect of over 50% in size; luciferase read-out
MARV entry inh – inhibitors of Marburg virus binding or cell entry | 1.8% of 300,000 active | Potency, µM (titrated, usually from 37.8 µM), without a hit: top-dose activity change, negative = inhibition, actives largely listed as inhibitors | Marburg virus pseudotyped entry inhibition, cell reporter; control for the full effect not named in the record; about a third of the inactives were read at about 46 µM; active = well fitted inhibition curve with a large enough effect; inconclusive = small, poorly fitted or top-dose-only effect, or effect the other way; inactive = flat fitted curve, though single readings scatter; tested in HEK293 cells; about a fifth of its hits are not listed in these tables; also: % is scaled to controls: 0 for no effect and ±100 for the full control effect; luciferase read-out
SARS PLP yeast – inhibitors of SARS-CoV papain-like protease in yeast | 0.19% of 330,000 active | Potency, µM (titrated, usually from 32.9 µM), for inactives: top-dose activity, positive = growth rescue | S. cerevisiae expressing SARS-CoV PLpro, growth rescue; control for the full effect not named in the record; active means well fitted rising curve with a large enough effect; inconclusive means small, poorly fitted or top-dose-only effect; inactive means no such curve, though single readings can be large or run the other way; also: 0% is about no effect; nearly all actives have a fitted effect of over 55% in size; growth read by luminescence after 48 h
RE007 growth inh – less growth of the S. pombe RE007 Vpr strain. S. pombe RE007 Vpr strain, BacTiter-Glo ATP luminescence, 24 h; control for the full effect not named in the record. Potency, µM (titrated, usually from 92.2 µM), for the others: at the highest dose activity change, negative = less growth. 0.21% of 360,000 active. AID 651644; active = well fitted falling curve with a large enough effect; inconclusive = small, poorly fitted or top-dose-only effect; inactive = no such curve, though single readings can be large or run the other way;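 also: % is scaled to controls: 0 for no effect and ±100 for the full control effect; nearly all actives have a fitted effect of over 50% in size; the assay follows cell death caused by Vpr and the record does not say whether a fall means rescue or toxicity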
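Fission yeast strain RE007, carrying one chromosomally integrated HIV-1 vpr copy, was seeded at OD 0.01 in PMG+AL medium with 23 nL pinned compound. After 24 h at 30 °C and 99% humidity, viability was read by BacTiter-Glo luminescence.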
NS1 inh – inhibitors of influenza NS1 protein function; Potency, µM (doses to about 46.1 µM), inactives show top-dose activity, positive = more growth; S. cerevisiae slowed by influenza A NS1, growth recovery by OD600; 0.4% of 270,000 active; active means well fitted rising curve with a large enough effect; inconclusive means small, poorly fitted or top-dose-only effect; inactive means no such curve, though single readings can be large or run the other way; also: nearly all actives have a fitted effect of over 50% in size
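OD600 was taken as the measure of yeast growth restored by compound in an NS1-expressing S. cerevisiae strain. Cells had been washed out of glucose medium and diluted 1:100 into galactose -URA medium, pH 6.0.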
Cruzain inh Det – blocks cruzain activity in presence of Triton detergent; P25779; purified cruzain, Z-FR-AMC fluorescence, 0.01% Triton; Potency, µM, for inactives: max response, negative = inhibition, actives largely listed as inhibitors; 0.43% of 200,000 active; AID 1478;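 also: plate controls were neutral wells for no effect and buffer without enzyme for full effect; nearly all actives have a fitted effect of over 40% in size; top concentration of the series not given in the record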
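Steps: dispense cruzain (1.5 nM final) in acetate buffer pH 5.5 with DTT and 0.01% Triton X-100; pin-transfer compounds; incubate 15 min RT; add Z-FR-AMC (2 uM final); read fluorescence every 30 s, using the 60 s intensity change.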
2A StopGo – FMDV 2A StopGo reporter, luciferase signal; AID 1159524; Potency, µM (doses to about 57.9 µM), for the others: top-dose signal change, negative = less light; human cells with a luciferase reporter of 2A StopGo recoding; control for the full effect not named in the record; 1.2% of 410,000 active; active = well fitted falling curve with a large enough effect; inconclusive = small, poorly fitted or top-dose-only effect; inactive = no such curve, though single readings can be large or run the other way; tested in HEK293T cells; also: % is scaled to controls: 0 for no effect and ±100 for the full control effect; nearly all actives have a fitted effect of over 45% in size; luciferase light after 4 h
The depositor's hits bear a star; ? = inconclusive; . = not tested or not shown; [ ] = another dose, or the depositor's remark. Unless noted, calls follow the shape of the dose curve; as a rule, active = well fitted curve in the direction sought with a large enough effect; inconclusive = small, poorly fitted or top-dose-only effect, or another doubt; inactive = no such curve, though single readings can be large; an effect the other way counts as inactive or inconclusive. Potency is read from the fitted curve at half-maximal effect.

SMILES	Cruzain inh noDet	LASV entry inh	MARV entry inh	SARS PLP yeast	RE007 growth inh	NS1 inh	Cruzain inh Det	2A StopGo
COc1ccc(/C=C/C(=O)c2ccncc2)c2ccccc12	?	-15%	?	-23%	?	-11%	-4.9%	?
CCOC(=O)C1CCN(CC(=O)Nc2cc(C)nn2-c2nc3ccccc3s2)CC1	?	.	.	.	.	-1%	-1.6%	0%
Cc1ccc(CN(C(=O)COc2ccccc2Cl)c2ccccn2)o1	4%	?	3%[46.1 µM]	.	.	.	-3.2%	66%[activator]
O=C(O)C(CCc1ccccc1)(Cc1ccccc1)C(=O)O	.	3%[46.1 µM]	1%[46.1 µM]	.	-18%	.	.	15%
O=C(NNC(=S)NC(=O)c1cccnc1)c1ccccc1	0%	5%	8%	-3%	5%	-29%	4.2%	35%[activator]
Cn1cc(C(=O)N/N=C/c2ccc(Br)c([N+](=O)[O-])c2)c2ccccc21	.	0%	-3%[46.1 µM]	1%	-22%	4%	.	-3%
C/C(=N\NC(=O)c1nnn(-c2nonc2N)c1-c1ccc(Cl)c(Cl)c1)c1ccncc1	.	.	.	5%	3%	5%	.	-2%
Cc1cc(-c2ccccc2)nc(N/N=C/c2ccc(O)cc2)n1	.	8.9µM*	?	-2%	-3%	.	.	-27%
Cc1ccc(S(=O)(=O)N2CCCCC2CCNC(=O)C(=O)NCc2ccccc2C)cc1 (stereo not drawn)	.	?	?	-2%	-5%	.	.	?
CC(C)Nc1cc(C(F)(F)F)nc(-c2ccccn2)n1	-7%	1%	-27%	-6%	-1%	18%	1.4%	-11%
COc1ccc(CNC(=O)CC2N=C3c4ccccc4N=C(SCC(=O)Nc4ccc(C(C)C)cc4)N3C2=O)cc1 (stereo not drawn)	?	-5%[46.1 µM]	.	.	.	.	-7.3%	-22%
C=C(C)C1CCC(C)=C1COC(=O)Nc1ccccc1 (stereo not drawn)	11%	?	14%	-16%	-9%	-17%	-8.9%	-16%
CCOC(=O)c1cn2ccc(C)cc2n1	.	-3%	15%	-1%	2%	-3%	.	65%[activator]
CCOC(=O)C1(C)/C(=N/Nc2ccccc2)C(=O)C(=O)N1c1ccccc1 (stereo not drawn)	-10%	8%	18%	-12%	10%	-46%	-8.6%	-1%
CC(=O)Nc1ccc(-c2csc(Nc3cc(C)ccn3)n2)cc1	.	?	?	-17%	-8%	.	.	?
CCc1nc2cccnc2n1-c1ccc(CC(=O)Nc2c(C)cccc2C)cc1	-1%	-2%[46.1 µM]	.	.	.	.	-27%	-20%
CCCCn1c(SCC(=O)Nc2ccc(OC)cc2)nc2ccc(N3CCOCC3)cc2c1=O	?	-8%	?	-3%	-6%[3.69 µM]	-18%	-2.9%	1%
O=C(CCC1CCCC1)NNC(=O)c1cccc(Cl)c1	.	.	.	7%	-6%	-10%	.	19%
O=C(Cc1ccc(F)cc1)NC1CC(=O)N(c2ccccc2)C1 (stereo not drawn)	14%	2%[46.1 µM]	.	.	.	.	0.5%	-5%
CCOCCCNC(=O)C1CC(=O)N(CCc2ccc(C)cc2)C1 (stereo not drawn)	.	17%[46.1 µM]	-4%[46.1 µM]	2%	2%	3%	.	0%
Cc1cc(NC(=O)CSc2nnc(C3COc4ccccc4O3)n2N)no1 (stereo not drawn)	.	.	.	1%	1%	3%	.	-6%
COc1cccc2c1OCC/C2=N\NC(=O)C(C)Oc1ccc([N+](=O)[O-])cc1 (stereo not drawn)	.	-12%	-2%[46.1 µM]	0%	2%	-4%	.	-27%
CC(=O)N1CC(=O)N(c2ccccc2)C1=O	.	.	.	2%	2%	0%	.	-9%
O=C(Nc1cccc2ccccc12)c1cnccn1	-4%	26%	?	-1%	-13%	-3%	-0.5%	32%[activator]
Cc1n[nH]c(=S)n1/N=C/c1cccc(OCc2ccccc2)c1	.	14%[46.1 µM]	?	0%	-11%	-1%	.	11%
Cc1ccc(CCNC(=O)C2CCN(c3nnc(-n4cccc4CNc4ccc(C)cc4)s3)CC2)cc1	-8%	.	-11%[46.1 µM]	.	.	.	2.8%	-19%
Cc1ccc(C2CC(=O)Nc3cc4c(cc32)OCCO4)cc1Br (stereo not drawn)	-7%	?	-8%[46.1 µM]	.	.	.	-5.2%	?
CC12CN3CCN(CC(C3)C1(O)CN1CCCCC1)C2 (stereo not drawn)	-3%	-2%	-50%	.	12%	14%	-3.9%	-15%
Cc1nnc(Sc2cc(C(=O)NC3CC3)c3ccccc3n2)s1	.	-1%[46.1 µM]	-7%[46.1 µM]	1%	-5%	3%	.	-24%
CCOC(=O)N1CCN(S(=O)(=O)c2ccc(C(=O)Nc3nnc(C4CC4)o3)cc2)CC1	14%	?	-1%	22%	13%	-28%	-0.4%	-1%
COC(=O)c1ccc(-c2nc(CN3CCCN(C(=O)c4ccco4)CC3)c(C)o2)cc1	.	.	.	2%	-8%	10%	.	-18%
COc1ccc(-n2c(C)cc(/C=C3/SC(=O)N(CC(=O)N4CCOCC4)C3=O)c2C)cc1	?	-2%	-27%	28%	-28%	7%	-8.0%	-20%
CCOc1ccc(NC(=O)CCN2CCCCC2)cc1	0%	-3%	0%	7%	-7%	-16%	0.7%	-21%
COc1ccc(C2/C=C\CN(CC(C)C)CC(=O)N2Cc2ccc(F)cc2)cc1 (stereo not drawn)	.	.	.	0%	3%	?	.	-16%
COc1ccc(C(=O)N(C)C(C)c2ccon2)cc1OC1CCN(C(C)C)CC1 (stereo not drawn)	.	9%	-24%	?	-1%	7%	.	-11%
Cc1c(C(=O)NCc2ccccn2)oc2c(Cl)cccc12	.	1%	4%	-3%	-12%	.	.	3%
CN1C(=O)C(=O)/C(=C(/O)c2ccc(Br)cc2)C1c1ccc(Cl)cc1 (stereo not drawn)	.	10%[46.1 µM]	-3%[46.1 µM]	5%	6%	-12%	.	-9%
Cc1nnc(NC(=O)c2ccc(Br)o2)s1	.	.	.	-3%	-10%	-4%	.	22%
CCn1c(CNC(=O)Cc2ccc(OC)cc2)n[nH]c1=S	.	-18%[46.1 µM]	3%[46.1 µM]	0%	-15%	.	.	17%
Cc1cc(C)cc(-n2ccn(CC(=O)c3ccc(F)cc3)c(=O)c2=O)c1	5%	-1%[46.1 µM]	.	.	.	.	-1.1%	-3%
CN(C)S(=O)(=O)c1ccc2nc(NC(=O)c3cccs3)sc2c1	-8%	-28%	?	-9%	-12%	-25%	-10%	0%
COc1ccc2nc(NC(=O)c3cccc(S(=O)(=O)N4CCOCC4)c3)sc2c1	27%	?	?	-3%	16%	19%	-6.3%	?
CSc1ccc(OC2CCCCC2NS(=O)(=O)c2ccccc2)cc1 (stereo not drawn)	-5%	0%	-44%	-24%	2%	-24%	-7.2%	0%
O=[N+]([O-])c1ccc(N2CCN(c3ccc(F)cc3)CC2)nc1	.	.	.	1%	-21%	-3%	.	?
COc1cccc(NC(=O)c2ccc(Cn3cc([N+](=O)[O-])cn3)o2)c1	3%	8%	5%	-23%	11%	-6%	-3.6%	-9%
CCOC(=O)Nc1ccc2c(COC(=O)c3ccccc3O)cc(=O)oc2c1	.	-4%[46.1 µM]	-10%[46.1 µM]	1%	-1%	7%	.	22%
C/C(Cl)=C\Cn1c(O)c(N=O)c2ccccc21	.	-17%	-22%[46.1 µM]	-1%	4%	-30%	.	-17%
CCc1ccc(CN(C)C(=O)C2CCC(=O)N(Cc3ccccn3)C2)cc1 (stereo not drawn)	.	.	.	1%	-6%	6%	.	2%
Fc1ccc(-c2nc3ccccn3c2NCc2ccc3c(c2)OCO3)cc1	.	11%	?	-9%	-4%	.	.	-28%
Cc1ccc(C)c(N2CCN(C(=O)Nc3cn(CC(C)C)c(=O)c4ccccc34)CC2)c1	20%	-12%[46.1 µM]	.	.	.	.	-8.2%	-1%
O=C(NCc1ccco1)C(=O)NCC1OCCCN1S(=O)(=O)c1ccccc1 (stereo not drawn)	3%	2%	10%	-2%	24%	7%	-3.6%	-20%
COc1ccc(CNC(=O)CN(C(=O)c2csnn2)c2cnc3ccccc3c2)cc1	.	-3%	6%[46.1 µM]	1%	11%	1%	.	1%
CCOc1ccccc1C=NNC(=O)C(=O)NN=Cc1ccccc1OCC	.	-5%	25%	.	-21%	.	.	0%
CNC(=S)N1CCN(C(=O)c2ccco2)CC1	1%	2%	1%	-3%	4%	4%	0.4%	7%
COc1cccc(NC(=O)CSc2nc(=O)n(CCN(C)C)c3c2CCCC3)c1	.	-4%	-27%	4%	-2%	.	.	-1%
CS(=O)(=O)c1ccccc1-c1nnc(NC(=O)c2ccco2)o1	.	13%	1%	5%	-23%	.	.	-13%
CN=C1c2c(-c3ccccc3)c3cc(OC)ccc3n2CCN1C	2%	?	?	7%	?	7%	-5.0%	-13%
Cc1ccc(S(=O)(=O)N(CCC#N)C2CCCCC2)c2nsnc12	-3%	-1%	?	-4%	22%	-23%	-6.1%	-13%
O=[N+]([O-])c1ccccc1OCc1nc(-c2cccs2)no1	.	?	-19%[46.1 µM]	-1%	?	.	.	0%
COc1ccc(-n2ncc3c(NCc4cccnc4)ncnc32)cc1	.	.	.	1%	-2%	-2%	.	19%
Further compounds follow:
SMILES	Cruzain inh noDet	LASV entry inh	MARV entry inh	SARS PLP yeast	RE007 growth inh	NS1 inh	Cruzain inh Det	2A StopGo
Cc1ccc(NC(=O)CCC(=O)c2cccs2)cc1F	.	2%	19%[46.1 µM]	-8%	-4%	-2%	.	-10%
CCN(CC)C(CNC(=O)CSc1nnnn1-c1c(C)cccc1C)c1ccco1 (stereo not drawn)	.	8%	-2%	-1%	10%	.	.	-16%
CC(=O)N1CN(Cc2ccccn2)Cc2c1sc1c2CCCC1	-9%	15%	-3%	-6%	-7%	-1%	1.1%	-5%
O=C(Cc1ccccc1[N+](=O)[O-])NCCCc1ccccc1	.	?	9%	-7%	12%	-3%	.	53%[activator]
COc1ccc(NC2CCCN(C(=O)CN3C(=O)c4ccccc4C3=O)C2)cc1OC (stereo not drawn)	.	-3%[46.1 µM]	25%[46.1 µM]	3%	-5%	11%	.	-16%
CCOC(CNC(=O)c1cccn2c(=O)c3cc(Cl)ccc3nc12)OCC	?	-17%	?	2%	2%	19%	-4.0%	-7%
